# Mtb hypoxia rep = PubChem AID 1159583; M. tuberculosis hypoxia-regulated fluorescent reporter, fluorescence; fluorescence inhibition, % (test concentration not listed); 0.1% of 300,000 active;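 active = 35 to 45% if threefold the growth effect, above 45% if 1.5-fold the growth effect; inactive = the rest, general growth blockers included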;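 note: wells of about 50 µL received 100 nL stock; 0% = vehicle wells and 100% = reference inhibitor wells; whole bacteria with a GFP reporter of the hypoxia response; strong numbers were not always called active; many hits fall short of the cut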
# Autofluor counter = compound fluorescence in toxin protease inhibitor counterscreen | compound autofluorescence counterscreen, microsphere flow cytometry; hits give high values | fluorescence intensity (no concentration beside the values) | 3.1% of 360,000 active | AID 624483;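 active = at least 3 SD above the mean of all compounds, about 16000 in these data; inconclusive = too few beads counted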;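 note: 100 nL of 1 mM stock went into each well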
# BJeLR lethal = MLPCN primary cell-based screen for lethality selective to Ras in HRASV12 cells; BJeLR (HRASV12) viability, CellTiter-Glo ATP luminescence, 48 h; reference of the scale not given here; inhibition, % (no concentration beside the values); 0.17% of 300,000 active; AID 1554, 2009;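 active = replicate mean above 50%; inconclusive = above 50% but judged a plate artefact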;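 note: 50 nL library stock added to about 25 µL; numbers are from one replicate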
# Sa RN4220 lethal = growth inhibition of S. aureus RN4220, primary screen, OD600; inhibition, % (test concentration not listed); 16 h; 0.33% of 330,000 active;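 active = z-score of -3 or lower and OD600 up to 0.18 on both plates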;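 note: plate controls were untreated cells for no effect and reference antibiotic for full effect; stock transfer was 100 nL into about 80 µL; one replicate is shown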
# PrP UTR inh = inhibition of PrP 5' UTR reporter expression. cell-based PrP 5' UTR mRNA reporter, plate reader. inhibition, % (no concentration beside the values). 0.35% of 340,000 active;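 active = every replicate at 50% or more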;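 note: 0 = median of the neutral control wells; tested in H4 reporter cells; numbers are from one replicate; inactives centre near -14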
# ugtP null kill = growth inhibition of ugtP-null S. aureus, primary screen, RN4220 ugtP deletion, OD600. 16 h; some inactives read as strong as hits. growth inhibition, % (concentration not given with the values). 0.54% of 330,000 active. AID 1259309, 2017;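 active = z-score under -3 and OD600 up to 0.15 on both plates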;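 note: plate controls were untreated wells for no effect and antibiotic for full effect; wells of about 80 µL received 100 nL stock; the first replicate is given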
# Mtb hypoxia rep growth = recorded beside Mtb hypoxia rep, whose call it bears; growth inhibition, %; measured here: M. tuberculosis growth (absorbance);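 0% = vehicle and 100% = reference antibiotic; read after six days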
# Numbers without * were called inactive; ? = inconclusive; · = not tested or not shown.
SMILES,Mtb hypoxia rep,Mtb hypoxia rep growth,Autofluor counter,BJeLR lethal,Sa RN4220 lethal,PrP UTR inh,ugtP null kill
O=C1CC(c2ccco2)CC2=C1C(c1ccccc1)n1nc(C(F)(F)F)nc1N2 (configuration not stated),·,·,3586,7,-0.6,-8,-2
C=C1C(C(=O)Nc2ccc(F)cc2)C1C(=O)Nc1ccc(F)cc1 (configuration not stated),-2,12,2069,-6,0.9,-13,8
O=C(CC12CC3CC(CC(Br)(C3)C1)C2)OCCN1CCCCC1,0,-2,4586,5,3.7,2,2
CSCCC(NC(=O)COc1ccccc1)C(=O)N(C)CC(=O)Nc1c(C)cccc1C (configuration not stated),7,5,5073,18,1.7,0,3
COc1ccc(C(=O)NNC(=S)NC(=O)c2cccs2)cc1,·,·,5812,10,·,-27,·
CCOC(=O)C(NC(C)=O)(OCc1ccccc1)C(F)(F)F (configuration not stated),1,3,2081,-5,5.8,-19,-2
Cc1cc(C)nc(NN2C(=O)/C(=C/c3ccc(O)cc3)SC2=S)n1,6,21,7834,-3,4.1,·,-8
CC1CCN(C(=O)CN2C(=O)C(C)(C)Oc3ccc(C(=O)NC(C)C)cc32)CC1,14,-2,5262,-7,3.7,-20,0
CCCCOc1ccc(C=CC(=O)NC2=Nc3ccccc3NC(C)=C2C(=O)OCC)cc1OC,-5,3,·,·,-0.7,·,-11
Cc1ccc(NC(=O)c2cccc(S(C)(=O)=O)c2)cc1,9,-6,4490,-5,0.7,-38,1
CC(=O)c1ccc(Nc2nc3ccc(C)cc3n3cnnc23)cc1,-2,8,3626,6,1.0,-9,0
CCOC(=O)N1CCN(Cc2nc(N)nc(Nc3ccccc3C)n2)CC1,4,6,9998,-6,6.4,-26,0
Cc1ccc(S(=O)(=O)N2CCCC2)cc1C(=O)N1CCC(C)CC1,-4,4,5575,4,1.3,-12,1
COc1ccc(N2CCN(C(=O)CCc3ccc(S(=O)(=O)NC(C)C)cc3)CC2)cc1,6,7,11202,-15,4.0,-5,-1
C/C=C\C=C\C(=O)N1CC2(CC(c3cccc(NC(=O)COc4ccc(Cl)cc4)c3)=NO2)C[C@H]1C(N)=O (some centres not stated),·,·,4189,-5,·,-9,·
Cn1nnnc1SCCNCc1ccccc1OCc1ccccc1Cl,2,7,4903,0,2.0,-26,11
COc1ccc(C(CNC(=O)c2ccc(S(=O)(=O)N3CCOCC3)cc2)N2CCCCC2)cc1 (configuration not stated),-5,8,3898,8,3.1,-3,4
COC(=O)C(Cc1ccccc1)NC(=O)CSc1nc(C)cc(=O)[nH]1 (configuration not stated),1,-3,4239,0,3.5,-54,9
O=S1(=O)N=C(N(CCO)N=Cc2ccc(Br)cc2)c2ccccc21,-12,0,·,·,0.5,·,-11
COc1ccccc1CNC(=O)CCSCc1cccc(Cl)c1,-8,1,2482,0,-2.9,-22,2
N=C1/C(=C\c2ccc(-c3cccc(Cl)c3)o2)C(=O)N=C2SC=C(c3ccccc3)N12,5,10,2488,-6,24,-30,-18
Cc1ccc(-c2c(C#N)c(N)n(-c3ccc(C)cc3)c(=O)c2C#N)cc1,·,·,4824,1,9.6,-22,-3
c1ccc2c(c1)Sc1ccccc1N2CC1CN2CCC1CC2 (configuration not stated),6,19,5370,-3,-8.2,-10,-2
CC(C)=N/N=C1\NC(=O)C(C)S1 (configuration not stated),1,-5,4124,-1,0.7,-23,9
Cc1ccc(-c2cc(C(=O)NCc3ccco3)c3ccccc3n2)o1,-6,10,2929,-3,16,-9,0
O=c1[nH]c2c(s1)C(c1ccc(O)cc1)C1C3CCC(C3)C1S2 (configuration not stated),7,1,5961,-9,-1.4,-5,8
CN(CC(=O)Nc1cccc(F)c1)C(=O)c1ccc(C2SCCS2)cc1,-5,-9,?,8,3.3,-10,6
COc1cc(C(C)=O)ccc1OCC(=O)OCCCOC(=O)COc1ccc(C(C)=O)cc1OC,5,2,5866,4,4.5,-14,7
CC(C)CN1CCC(C(=O)N2CCN(c3ccccc3F)CC2)CC1,·,·,2527,-8,0.8,-1,4
Cc1onc(-c2c(F)cccc2Cl)c1C(=O)N1CCN(S(C)(=O)=O)CC1,0,-1,10723,2,1.9,2,-1
O=C(O)C1CCCN1S(=O)(=O)c1ccc(F)cc1 (configuration not stated),11,-3,3069,-7,1.1,·,5
Cc1cc(NC(=O)C(=O)c2c(C)[nH]c3ccccc23)no1,-1,3,4157,4,4.2,-11,3
CCOn1c(-n2nc(C)cc2C)nc2ccccc2c1=O,3,3,20487*,13,3.9,-4,-2
COc1ccc(NC(=O)CC2(CC(=O)O)CCCC2)cc1,-7,-8,3381,-3,4.3,2,5
Cc1cccc(CSCCNC(=O)CN(c2cc(C)cc(C)c2)S(C)(=O)=O)c1,-5,8,3381,-4,3.8,-7,-1
O=C(CSc1n[nH]c(-c2ccc(Br)cc2)n1)NC1CCCC1,9,10,3506,·,1.6,-4,3
COC(=O)C1=C(c2ccccc2)C[C@@H]2CC[C@H]1N2C(=O)N1CCCCC1,4,9,4235,5,-3.2,-20,-10
CN(Cc1ccco1)C(=O)Cn1c(=O)oc2cc(S(=O)(=O)NCc3ccccc3)ccc21,14,9,5857,3,1.6,-5,6
O=C(Cn1c(NCCO)nc2ccccc21)c1ccc(F)cc1,7,2,3250,2,2.1,-8,5
CCOC(=O)c1ccc(NC(=O)Cn2nnc(-c3ccccc3F)n2)cc1,1,4,2582,1,-3.4,-11,-2
O=C(COC(=O)c1ccccc1OC(F)F)Nc1ccc2[nH]c(=O)[nH]c2c1,-1,-2,4302,-1,0.7,-20,3
Cn1c(=O)c2[nH]c(N3CCN(c4cccc(O)c4)CC3)nc2n(C)c1=O,-2,2,4063,7,3.0,-20,0
C[C@@H]1CN(C(=O)c2cc(COc3cccc(C(F)(F)F)c3)on2)C[C@H](C)O1,-1,5,4215,11,2.3,-6,0
CCS(=O)(=O)c1nc(S(=O)(=O)c2ccc(Cl)cc2)c(N2CCN(CCO)CC2)s1,4,1,6019,2,3.5,-11,8
CCOC(=O)c1ccc(Oc2cn[nH]c2-c2ccc(OCC(=O)NN)cc2O)cc1,17,-6,3581,-3,-6.0,-16,2
Cc1cc(C(=O)N2CCN(c3ncccn3)CC2)sc1-c1ccccc1,10,10,24354*,-3,3.8,-6,13
Nc1ccc(N=Nc2ccccc2)c(N)n1,11,4,6161,0,5.2,-38,-4
CCOC(=O)NC(=O)/C(N=Nc1cccc(C(F)(F)F)c1)=C(\C)O,16,-1,4034,10,5.2,-13,-2
Cc1ccccc1NC(=O)Nc1ccc2c(c1)CCC2,-5,12,?,10,2.3,-36,2
O=C(CSc1ccc(-c2cccc([N+](=O)[O-])c2)nn1)NCc1ccccc1,12,8,4310,-3,1.8,-17,19
# (continued)
SMILES,Mtb hypoxia rep,Mtb hypoxia rep growth,Autofluor counter,BJeLR lethal,Sa RN4220 lethal,PrP UTR inh,ugtP null kill
COc1ccc(-c2noc(C3CCCN(C(=O)Nc4ccccc4)C3)n2)cc1 (configuration not stated),-3,8,4156,0,-4.5,-44,-19
CC(=O)OC1CCC2C3CCC4OC(=O)CCC4C3CCC12C (configuration not stated),3,3,3636,·,6.9,-12,5
Cc1sc2ccccc2c1CNC[C@H]1O[C@@H](n2cnc3c(N)ncnc32)[C@H](O)[C@@H]1O,-13,-2,3369,·,3.2,-25,-3
CC(=O)/C=C1/C(=O)Nc2ccccc21,18,8,4477,8,11,-31,-3
O=C(c1ccc(N2C(=O)CCC2=O)cc1)N1CCOCC1,12,6,10575,-6,2.1,-60,3
Cc1cccc(-c2nnc(-c3ccc4ccccc4c3)o2)c1,18,8,3644,·,7.9,-10,-8
CC(=O)c1ccc(Nc2nc(N3CCOCC3)nc(N3CCOCC3)n2)cc1,-1,7,4218,-8,0.1,-15,1
COc1cc(NS(=O)(=O)c2ccc(OC)c(C)c2C)c(OC)cc1Cl,11,6,4106,25,2.3,-74,-6
Cc1ccc(NC(=O)CC2C(=O)N(Cc3ccccc3)C(=S)N2NC(=O)c2ccccc2)c(C)c1 (configuration not stated),6,-1,2023,-5,0.2,0,2
Cc1c(C)n(C)c2ccc(C(=O)NCCCN3CCN(C)CC3)cc12,2,10,6475,-6,0.7,6,0
COc1cc(OC)c(OC)cc1CNC(C)C(O)c1ccccc1 (configuration not stated),-12,-7,17763*,-2,0.7,-12,-4
Cc1ccc(-n2nnnc2C(Cl)c2nnnn2-c2ccc(C)cc2)cc1,4,18,2517,2,97*,-4,99*
CC(=O)Nc1ccc(NC(=O)Cc2sc(C)nc2-c2ccc(C)cc2)cc1,-5,-7,2456,7,-11,-19,-1
CCCCc1nnc(NC(=O)CCc2ccccc2)s1,3,2,2758,6,1.7,-5,13
CN(CC(=O)Nc1ccc(F)c(F)c1F)C(=O)Cc1ccc2c(c1)OCCO2,-5,11,6064,6,1.4,-15,3
CN1CCN(C(=S)Nc2cc([N+](=O)[O-])ccc2Cl)CC1,1,2,7566,·,1.7,-9,4
CCCC1=[N+](CC(=O)c2ccccc2)CCn2c(C)ccc21,17,19,4234,4,2.3,-11,2
O=C(COC(=O)COc1ccccc1)Nc1ncc(Cl)cc1Cl,0,3,2974,·,-0.4,-7,-2
CCCCOC(=O)C1=C(C)NC(=O)NC1c1ccc(OC)cc1 (configuration not stated),-2,-4,4355,-4,4.0,-41,6
COC(=O)c1ccc(N=NN2CCCCC2)cc1,14,6,4424,7,12,-28,2
COC(=O)c1ccc(OCC(=O)c2ccccc2OC)cc1,3,3,20757*,4,6.2,-9,4
CC(C)(C)c1ccc(C=NN2C(=O)CSC2=S)cc1,18,15,·,·,2.1,·,-12

# Arranged by molar mass (low to high): part of the list above
SMILES,Mtb hypoxia rep,Mtb hypoxia rep growth,Autofluor counter,BJeLR lethal,Sa RN4220 lethal,PrP UTR inh,ugtP null kill
Nc1ccc(N=Nc2ccccc2)c(N)n1,11,4,6161,0,5.2,-38,-4
Cc1ccc(NC(=O)c2cccc(S(C)(=O)=O)c2)cc1,9,-6,4490,-5,0.7,-38,1
CCOC(=O)C(NC(C)=O)(OCc1ccccc1)C(F)(F)F (configuration not stated),1,3,2081,-5,5.8,-19,-2
COc1cc(OC)c(OC)cc1CNC(C)C(O)c1ccccc1 (configuration not stated),-12,-7,17763*,-2,0.7,-12,-4
Cc1c(C)n(C)c2ccc(C(=O)NCCCN3CCN(C)CC3)cc12,2,10,6475,-6,0.7,6,0
Cn1c(=O)c2[nH]c(N3CCN(c4cccc(O)c4)CC3)nc2n(C)c1=O,-2,2,4063,7,3.0,-20,0
COC(=O)C(Cc1ccccc1)NC(=O)CSc1nc(C)cc(=O)[nH]1 (configuration not stated),1,-3,4239,0,3.5,-54,9
CCOC(=O)N1CCN(Cc2nc(N)nc(Nc3ccccc3C)n2)CC1,4,6,9998,-6,6.4,-26,0
COc1ccc(-c2noc(C3CCCN(C(=O)Nc4ccccc4)C3)n2)cc1 (configuration not stated),-3,8,4156,0,-4.5,-44,-19
CN(CC(=O)Nc1ccc(F)c(F)c1F)C(=O)Cc1ccc2c(c1)OCCO2,-5,11,6064,6,1.4,-15,3
O=C1CC(c2ccco2)CC2=C1C(c1ccccc1)n1nc(C(F)(F)F)nc1N2 (configuration not stated),·,·,3586,7,-0.6,-8,-2
O=S1(=O)N=C(N(CCO)N=Cc2ccc(Br)cc2)c2ccccc21,-12,0,·,·,0.5,·,-11
Cc1sc2ccccc2c1CNC[C@H]1O[C@@H](n2cnc3c(N)ncnc32)[C@H](O)[C@@H]1O,-13,-2,3369,·,3.2,-25,-3
CN(Cc1ccco1)C(=O)Cn1c(=O)oc2cc(S(=O)(=O)NCc3ccccc3)ccc21,14,9,5857,3,1.6,-5,6
CCS(=O)(=O)c1nc(S(=O)(=O)c2ccc(Cl)cc2)c(N2CCN(CCO)CC2)s1,4,1,6019,2,3.5,-11,8

# This is a random part of the collection; 4% or so of the library scored in one or more.
